gsp antag – antagonizes gsp, the McCune-Albright syndrome mutation; gsp-mutant cells, cAMP HTRF, 30 min; control for the full effect not named in the record; Potency, µM (highest dose often 76.9 µM), without a hit: at the highest dose activity change, negative = inhibition, actives largely listed as inhibitors; actives 0.4% (n = 340,000); active = falling curve of any shape with a large fitted effect; inconclusive = falling curve, mostly with a smaller effect; inactive = flat or rising curve; cell line not stated here;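 further: intracellular cAMP measured with PDE inhibitor Ro 20-1724 present during compound exposure; potency means the concentration at half of the fitted maximal effect; on the % scale 0 is the no-effect control and ±100 the full control effect; nearly all actives have a fitted effect of over 65% in size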
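HTRF cAMP measurement after 30 min RT detection following 30 min, 37C compound treatment alongside […] (added as 300 uM solution) in G418-selected cells seeded at 2000/well and grown 16–24 h.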
TRPML1 blocker – human mucolipin-1 channel inhibition; actives 0.02% (n = 390,000); AID 624415; activity change, negative = inhibition, % (test concentration not listed); Q9GZU1; TRPML1-inducible cells, Ca2+ dye fluorescence, FDSS; hits give low values; inhibition of EC80 agonist-evoked calcium signal; in the data active means activity change below about -50%; inconclusive means about -30% to -50%; inactive means above about -30%;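 further: stimulus is agonist 54-4 at its EC80 concentration; on the % scale 0 is the no-effect control and ±100 the full control effect; compound concentration not given in the record; the text of the record puts the active cut at -80%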
Target sequence (Q9GZU1 whole entry, looked up): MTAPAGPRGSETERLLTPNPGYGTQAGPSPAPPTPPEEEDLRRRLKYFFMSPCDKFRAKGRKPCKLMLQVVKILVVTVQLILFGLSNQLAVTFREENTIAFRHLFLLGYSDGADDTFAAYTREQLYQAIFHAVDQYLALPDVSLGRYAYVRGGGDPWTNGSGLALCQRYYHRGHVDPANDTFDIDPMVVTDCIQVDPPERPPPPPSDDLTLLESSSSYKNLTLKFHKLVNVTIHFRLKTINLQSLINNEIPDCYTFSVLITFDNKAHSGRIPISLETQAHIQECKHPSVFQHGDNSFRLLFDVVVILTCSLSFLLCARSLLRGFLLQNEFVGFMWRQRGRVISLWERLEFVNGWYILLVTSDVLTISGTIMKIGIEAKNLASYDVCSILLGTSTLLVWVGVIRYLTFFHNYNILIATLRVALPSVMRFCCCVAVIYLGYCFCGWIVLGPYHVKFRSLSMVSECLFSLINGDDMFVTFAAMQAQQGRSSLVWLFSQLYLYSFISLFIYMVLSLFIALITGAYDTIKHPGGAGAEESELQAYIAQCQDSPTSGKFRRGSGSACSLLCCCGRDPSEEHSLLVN
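TRPML1-DL cells, Tet-induced overnight (~16 h, 37 °C) at 1,500 cells/well, were loaded with Ca8 no-wash dye plus quencher for 45-90 min at room temperature. Compounds were pinned during FDSS kinetic reading; agonist 54-4 at EC80 (4 uM final) then added.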
Menin MLL FP FL – inhibitors of human menin-MLL interaction, wild-type MLL peptide; 290,000 tested, under 10 active; Fluorescence polarization, fluorescein-MLL peptide displacement from menin; FP activity change, % at 61.4 µM; inconclusive = falling polarisation curve, or a change in total fluorescence; inactive = total fluorescence flat and polarisation flat or rising; no compound was filed as active; the % refers to the polarisation; negative = inhibition;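 further: % of control where 0% means no effect; inhibitors lower the polarisation; unlabelled MLL peptide was the positive control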
gsp agonist – gsp mutant agonism | AID 624287 | actives 0.13% (n = 340,000) | gsp mutant cells, cAMP HTRF, 30 min; control for the full effect not named in the record | Potency, µM (top dose mostly 76.9 µM), inactives show at the highest dose activation (cAMP increase), actives largely listed as activators; active = well fitted activation curve with a large enough effect; inconclusive = small, poorly fitted or top-dose-only effect, or another doubt; inactive = no such curve, though single readings can be large or run the other way; cell line not stated here;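 further: phosphodiesterase inhibitor Ro 20-1724 added with compounds to block cAMP breakdown; potency means the concentration at half of the fitted maximal effect; nearly all actives have a fitted effect of over 60% in size; about a fifth of the inactives were tested at one dose only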
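Cells stably selected in G418 were plated at 2000/well, grown 16-24 hr, then given compounds in DMSO with the PDE inhibitor […] (300 uM solution added) for 30 min at 37C; cAMP was read by HTRF.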
Sfp PPTase inh – Sfp phosphopantetheinyl transferase inhibition; Q9F4F7; Biochemical Sfp PPTase activity, qHTS; Potency, µM, for inactives: max response, negative = inhibition, hits mostly inhibitors; actives 3.5% (n = 310,000); AID 1490; active means well fitted inhibition curve with a large enough effect; inconclusive means small, poorly fitted or top-dose-only effect, or another doubt; inactive means no such curve, though single readings can be large or run the other way;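 further: the enzyme is Sfp with the accession as filed and its product quenches rhodamine fluorescence; potency means the concentration at half of the fitted maximal effect; 0% = enzyme reaction without inhibitor and -100% = no enzyme wells; top concentration of the series not given in the record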
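Reaction rates are the 30-min fluorescence difference (ex 525, em 598 nm) in wells containing 15 nM Sfp, 5 uM rhodamine-CoA and 12.5 uM BHQ-2-YbbR at pH 7.6 with 10 mM MgCl2.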
TRPV1 potentiator – enhances activation of the human vanilloid receptor TRPV1. actives 0.02% (n = 320,000). TRPV1-expressing cells, Fluo-8 calcium influx, capsaicin EC20 potentiation; host cell line not named in the record; control for the full effect not named in the record. Q8NER1. potentiation, % at 8.33 µM; active means potentiation above 80%; inconclusive means 30% to 80%; inactive means below 30%; further: 0% is about no effect
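Cells expressing TRPV1 were dye-loaded with Fluo-8 and read kinetically: 10 s baseline, 3 min after compound (agonist portion), then 2 min after EC20 capsaicin (allosteric enhancer portion). Calcium-bound dye fluorescence at 480/520 nm.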
ClpP mod – qHTS Assay for Activators of ClpP | ATP-dependent Clp protease proteolytic subunit (Bacillus subtilis (strain 168)), P80244 | purified B. subtilis ClpP, FRET peptide cleavage, 20 min | Potency, µM (top dose mostly 57.5 µM), inactives show at the highest dose activity change, negative = active | actives 1.9% (n = 340,000) | AID 651965, 2013; active = well fitted falling curve with a large enough effect; inconclusive = small, poorly fitted or top-dose-only effect; inactive = no such curve, though single readings can be large or run the other way; further: potency means the concentration at half of the fitted maximal effect; the source files actives as falling curves though it sought activators and does not explain the sign; nearly all actives have a fitted effect of over 65% in size; many hits overshoot -100%
Target sequence (P80244 whole entry, looked up): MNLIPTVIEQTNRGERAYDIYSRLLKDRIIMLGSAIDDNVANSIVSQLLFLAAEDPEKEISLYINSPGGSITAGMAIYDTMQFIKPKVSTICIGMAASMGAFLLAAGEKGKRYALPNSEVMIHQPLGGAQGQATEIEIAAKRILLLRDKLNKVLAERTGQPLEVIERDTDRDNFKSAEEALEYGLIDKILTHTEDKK
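FRET quenching reversal measured ClpP activation: 10 microg/mL B. subtilis ClpP at pH 8 with the FRET-FV decapeptide, read at 430 nm after 320 nm excitation. The 20-min minus 0-min signal was scaled between DMSO/no-enzyme wells and ADEP (5.8 microM final).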
The depositor's hits bear a star; ? = inconclusive; . = not tested or not shown; & = joins results of further samples; [ ] = remark or other dose.

structure	Menin MLL FP FL	gsp antag	Sfp PPTase inh	TRPML1 blocker	gsp agonist	ClpP mod	TRPV1 potentiator
Fc1ccc(-c2cc(C(F)(F)F)nc(NCc3cccs3)n2)cc1	1.4	?	13%	4	-5%[15.4 µM]	32µM*	-4
COc1ccc(CCNC(=O)C(=O)N2CCCCC2)cc1OC	3.5	5%	7%	0	-10%	-0.8%	20
Cc1cc(=O)n(Nc2ccccc2)c(O)c1C#N	.	.	.	22	-25%	-2.8%	.
CCOC(=O)C1Cc2ccccc2CN1 (stereo not given)	0.1	4%	-2%	-6	11%	-0.9%	29
CC(=O)c1ccc2noc(-c3ccc(Cl)cc3)c2c1	1.2	-1%	-4%	-3	8%	.	7
N/C(Cn1cncn1)=N\NC(=O)C(=O)Nc1ccc(Cl)cc1Cl	-6.7	10%	14%	-13	36%[15.4 µM]	.	?
O=[N+]([O-])c1ccc(CSc2ccc(S(=O)(=O)N3CCCCC3)cn2)cc1	.	2%	.	-1	-9%	-0.9%	.
Cc1ccc(-c2nc(P(=O)(c3ccccc3)c3ccccc3)c(N3CCOCC3)o2)cc1	.	-9%	?	11	24%	-10%	26
CCCn1c(NCc2ccco2)nc2c1c(=O)n(C)c(=O)n2C	0.9	8%	-3%	11	19%	-1.1%	-7
S=C(Nc1ccc(Cl)c(Cl)c1)NN1CCOCC1	-1.1	17%	15%	-15	-21%	1.9%	3

The list goes on:
structure	Menin MLL FP FL	gsp antag	Sfp PPTase inh	TRPML1 blocker	gsp agonist	ClpP mod	TRPV1 potentiator
O=[N+]([O-])c1cc(C(F)(F)F)cc([N+](=O)[O-])c1NCCCNc1ccc([N+](=O)[O-])c2cccnc12	.	0%	2%	13	-3%	-1.5%	17
Cc1noc(C)c1S(=O)(=O)N(CC(=O)NCCc1ccccc1)c1ccc(C(C)C)cc1	.	-1%	14%	7&-1	-5%	0.9%&0.3%	1
CCOc1ccc(Nc2nc(N(C)c3ccccc3)nc(N)c2[N+](=O)[O-])cc1	3.7	-8%	6%	5	3%[15.4 µM]	0.7%	-2
CCN(CC)C(=O)c1ccc(C(=O)Nc2ccc(F)cc2)cc1	.	3%	.	1	-11%	0.3%	-9
Cc1ccccc1-n1ncc2c1CC(C)(C)CC2NC(=O)c1ccncc1 (stereo not given)	.	-12%	5%	4	-6%[15.4 µM]	0.4%	-5
CCCCn1nc(NC(=O)c2cccs2)c2cc3cc(OC)ccc3nc21	1.8	-11%	0%	1	-11%	.	6
COc1cccc(NC(=O)c2c(C)nn(-c3ccccc3)c2Cl)c1	-2.1	-17%	15%	-6	0%	0.7%	3
COc1ccc2[nH]c(C(=O)NCCc3ccccc3)cc2c1	0.2	-6%	5%	3	-6%[15.4 µM]	-1.7%	.
O=C(NCc1ccccn1)C1COc2ccccc2O1 (stereo not given)	-2.1	18%	14%	11	2%	0.0%	-12
Cc1ccc(C(=O)N/C(=C\c2cccs2)C(=O)NCCCn2ccnc2)cc1	-2.4	3%	8%	-10	0%[15.4 µM]	1.8%	3

Additional compounds follow:
structure	Menin MLL FP FL	gsp antag	Sfp PPTase inh	TRPML1 blocker	gsp agonist	ClpP mod	TRPV1 potentiator
COc1ccc(NC(=O)CC2Nc3cc(C)c(C)cc3NC2=O)c([N+](=O)[O-])c1 (stereo not given)	-3.6	-4%	-10%	23	-23%	-2.0%	15
Cc1cccc(NC(=O)CCc2c(C)nn(-c3ccc(N4CCCCC4)nn3)c2C)c1	-2.6	-26%	14%	6	38%	-0.3%	-6
CCN(CC)C(=O)COc1ccc2oc(-c3ccco3)cc(=O)c2c1	1.8	-6%	15%	8	29%	-7.6%	4
CCOc1nc(Nc2ccc(OC)c(Cl)c2)nc(OCC)n1	4.8	-24%	0%	6	3%[15.4 µM]	-0.1%	-6
Cc1c(C)[n+](=O)c(C)c(C)n1[O-]	.	4%	.	56	-16%	.	.
CCCCCCCCNS(=O)(=O)CCNCCCC	.	9%	.	19	.	0.7%	.
CC(=O)c1c(C)oc(C)c1CSCc1ccc(C(=O)O)o1	1.6	3%	45µM*	-16	2%	-8.6%	3
COc1ccccc1CCC(=O)OCC(=O)Nc1cccc(S(=O)(=O)N2CCCCC2)c1	.	1%	.	11	28%	-3.8%	8
Cc1ccccc1Nc1nc(N)nc(COC(=O)[C@@H](NC(=O)c2ccccc2Cl)C(C)C)n1	.	-1%	.	9	-11%[15.4 µM]	-0.5%	19
Cc1c(C(=O)NCC2CCCO2)oc2ccc(Br)cc12 (stereo not given)	.	9%	.	-6	?	-2.1%	-2

Next part:
structure	Menin MLL FP FL	gsp antag	Sfp PPTase inh	TRPML1 blocker	gsp agonist	ClpP mod	TRPV1 potentiator
CCN(CC)CC(=O)c1c[nH]c2ccc(C)cc12	3.9	7%	12%	-6	12%	-3.0%	7
CCN(CC(=O)NCc1cccs1)C(=O)c1ccc(S(=O)(=O)Nc2ccccc2OC)cc1	.	3%	.	8	-19%	-19%	-2
CC(C)(C)n1nc2c(c1NC(=O)c1c(F)cccc1F)CS(=O)(=O)C2	.	1%	10%	13	-19%	-1.4%	-1
O=C1N=C(C=c2ccc(=Cc3[nH]c(=O)[nH]c3O)cc2)C(=O)N1	23	.	-9%	.	.	.	5
O=C(CN1CCN(S(=O)(=O)c2ccc(F)c(F)c2)CC1)Nc1ccccc1C(=O)NC1CC1	.	?	.	-14	5%	-3.3%	-32
O=C(NCCN1CCOCC1)c1c(O)nc2sccn2c1=O	.	11%	.	-6	-17%[15.4 µM]	.	20
COc1cccc2c1OCC(CN1CCN(Cc3ccccc3F)C(CCO)C1)=C2 (stereo not given)	-2.9	4%	2%	28	9%	0.1%	2
Cc1ccccc1OCCC(=O)NNC(=O)COc1cccc(F)c1	.	5%	.	-19	-21%	-2.7%	.
COc1cccc(CNC(=O)C(=O)NCCc2ccc(OC)c(OC)c2)c1	1.0	3%	7%	11	-3%[15.4 µM]	2.2%	-6
O=[N+]([O-])c1c(C(Cl)Cl)nn(-c2ccccc2)c1N1CCCC1	2.0	-2%	3%	19	-7%	-0.7%	-1

(next part)
structure	Menin MLL FP FL	gsp antag	Sfp PPTase inh	TRPML1 blocker	gsp agonist	ClpP mod	TRPV1 potentiator
Cc1ccccc1OCC(O)Cn1c(NCc2ccco2)nc2c1c(=O)[nH]c(=O)n2C (stereo not given)	-0.3	0%	11%	-20	9%	-2.5%	2
Cc1ccc(-c2cc3ncc(C#N)c(N)n3n2)cc1	-2.3	-1%	-14%	27	4%[15.4 µM]	.	-6
C[C@@H](C(=O)NCc1ccccc1)[C@H]1C[C@]1(C)[C@H](NC(=O)OCc1ccccc1)c1ccccc1	1.6&-0.5	?	2%&7%	29	-7%	-6.3%	1
COc1ccc(C2(c3ccc(OC)cc3)NC(=O)N(CC(=O)Nc3ccc(N4CCOCC4)cc3)C2=O)cc1	.	-23%	.	0	-11%	-0.5%	12
COC(=O)c1[nH]c2ccc(Cl)cc2c1NC(=O)c1ccccc1[N+](=O)[O-]	7.6	14%	-1%	-17	-2%	-3.4%	-6
CCCCCCCCOC1OC(CO)C(O)C(O)C1NC(C)=O (stereo not given)	4.2	4%	7%	-5	-1%	0.2%	15
COc1ccc(C2CC(=O)n3c(nc4ccccc43)S2)cc1OC (stereo not given)	0.6	-4%	7%	8	?	-1.1%	1
Cn1c(SCC(=O)NCc2ccco2)nnc1-c1c[nH]c2ccccc12	2.8	3%	-3%	2	-59%[inhibitor]	0.9%	13
N#Cc1cc2c(nc1SCC(=O)Nc1sc3c(c1C#N)CCC3)CCCCCC2	9.9	-7%	17%	-6	8%	-8.9%	7
COCCC(=O)N1CCC(Oc2ccc(C(=O)NCCc3cnn(C)c3)cc2)CC1	-2.8	11%	11%	2	?	-2.0%	2

Other records follow:
structure	Menin MLL FP FL	gsp antag	Sfp PPTase inh	TRPML1 blocker	gsp agonist	ClpP mod	TRPV1 potentiator
N/C(=N\OC(=O)CC1CCCCC1)c1ccccc1	3.1	9%	11%	1	-1%	0.4%	4
CN1CCC(=NNc2ccc(S(=O)(=O)N3CCOCC3)cc2[N+](=O)[O-])CC1	2.3	-2%	-3%	1	?	-0.8%	1
CCOc1ncccc1C(=O)NCCc1ccc(Cl)cc1	-6.1	13%	2%	3	-6%[15.4 µM]	-0.3%	?
CCC(=O)N(Cc1cc2cccc(C)c2[nH]c1=O)c1ccccc1OC	-1.7	-12%	4%	1	4%	-15%	-5
CC#CCc1cc2ccccc2c(=O)o1	3.0	5%	-14%	15	3%	-4.8%	-4
CCOC(=O)c1cn(CC(=O)Nc2ccc3c(c2)OCCO3)nn1	-0.9	7%	33%	1	?	2.2%	-2
Nc1c(N=Nc2cccc(Cl)c2)c(=O)[nH]n1-c1ccccc1	1.4	9%	13%	-10	28%	-2.3%	14
O=C(Cc1ccccc1F)Nc1nc(-c2cccnc2)cs1	21	9%	-12%	-4	12%	-1.0%	18
O=C(NC(=S)N1CCOCC1)c1ccccc1Cl	.	1%	-20%	-4	3%	0.0%	5
N=c1c(C(=O)NCC2CCCO2)cc2c(=O)n3ccccc3nc2n1Cc1ccccc1Cl (stereo not given)	.	-9%	8%	14	16%[15.4 µM]	.	-3

Next compounds.
structure	Menin MLL FP FL	gsp antag	Sfp PPTase inh	TRPML1 blocker	gsp agonist	ClpP mod	TRPV1 potentiator
CS(=O)(=O)c1ccc2nc(NC(=O)CN3C(=O)NC4(CCCC4)C3=O)sc2c1	0.2	7%	9%	-19	-19%	-7.1%	29
COc1ccc(NC(=O)COc2ccccc2F)cc1S(=O)(=O)N1CCCCC1	.	-5%	-6%	3	4%	-2.3%	1
O=C(Cn1cc2c(n1)CCCCC2)Nc1c(F)cc(F)cc1Br	1.4	8%	11%	-11	15%[15.4 µM]	.	-13
CCOC(=O)c1cc(CC)sc1NC(=O)COC(=O)C1CCC1	-2.1	12%	-13%	5	29%	-3.2%	-7
COc1ccc(-n2c(SCc3ccc(C#N)cc3)nnc2-c2ccccn2)cc1	0.8	-16%	7%	-7	?	-24%	-13
O=C(CN1C(=O)CCC1=O)c1ccc(-c2ccccc2)cc1	0.7	16%	-11%	-18	5%	-7.1%	4

From PubChem BioAssay
